Bioassay records from PubChem BioAssay.
D2 ag: Beta-Arrestin HTS for Positive Allosteric Modulators of the Human D2 Dopamine Receptor: Agonists. D(2) dopamine receptor (Homo sapiens), P14416. DiscoveRx PathHunter D2 beta-arrestin, luminescence, 90 min; 100% = 57 uM dopamine signal. activation, % (no concentration beside the values). 0.084% of 360,000 active; in the data active = activation above about 40%; inconclusive = about 15% to 40%; inactive = below about 15%; further: compound concentration not given in the record; the text of the record calls up to 30% inactive
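DiscoveRx PathHunter D2 beta-arrestin cells (2,100/well) attached overnight, then compound-stimulated 90 min at 37 C in HBSS/10 mM HEPES/0.1% Tween-20 buffer; beta-galactosidase complementation read by luminescence after 1 h at ambient temperature. Dopamine 57 uM final (EC100) as control.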
gsp antag: qHTS for Antagonists of gsp, the Etiologic Mutation Responsible for Fibrous Dysplasia/McCune-Albright Syndrome: qHTS | Potency, µM (doses to about 76.9 µM), without a hit: top-dose activity change, negative = inhibition, usual class: inhibitors | gsp-mutant cells, cAMP HTRF, 30 min; control for the full effect not named in the record | 0.4% of 340,000 active | AID 624288, 2012; active = falling curve of any shape with a large fitted effect; inconclusive = falling curve, mostly with a smaller effect; inactive = flat or rising curve; cell line not stated here;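 further: intracellular cAMP measured with PDE inhibitor Ro 20-1724 present during compound exposure; potency means the concentration at half of the fitted maximal effect; on the % scale 0 is the no-effect control and ±100 the full control effect; nearly all actives have a fitted effect of over 65% in size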
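HTRF cAMP read-out (cAMP-d2 plus anti-cAMP antibody-K in lysis buffer, 30 min RT). Before lysis, cells are exposed to compounds with […] for 30 min at 37C in DPBS containing Ca/Mg, BSA and Tween 20.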
Six1-Eya2 blk: qHTS Assay for Inhibitors of the Six1/Eya2 Interaction; Homeobox protein SIX1 (Homo sapiens) + Protein phosphatase EYA2 (Homo sapiens), …; 0.56% of 360,000 active; AlphaScreen GST-Six1/His-Eya2 binding, biochemical; active compounds read low; control for the full effect not named in the record; AID 651725, 2012; activity change, % (test concentration not listed); in the data active = activity change below about -65%; inconclusive = about -30% to -65%; inactive = above about -30%; further: on the % scale 0 is the no-effect control and ±100 the full control effect
Target sequence (O00167 whole entry, looked up): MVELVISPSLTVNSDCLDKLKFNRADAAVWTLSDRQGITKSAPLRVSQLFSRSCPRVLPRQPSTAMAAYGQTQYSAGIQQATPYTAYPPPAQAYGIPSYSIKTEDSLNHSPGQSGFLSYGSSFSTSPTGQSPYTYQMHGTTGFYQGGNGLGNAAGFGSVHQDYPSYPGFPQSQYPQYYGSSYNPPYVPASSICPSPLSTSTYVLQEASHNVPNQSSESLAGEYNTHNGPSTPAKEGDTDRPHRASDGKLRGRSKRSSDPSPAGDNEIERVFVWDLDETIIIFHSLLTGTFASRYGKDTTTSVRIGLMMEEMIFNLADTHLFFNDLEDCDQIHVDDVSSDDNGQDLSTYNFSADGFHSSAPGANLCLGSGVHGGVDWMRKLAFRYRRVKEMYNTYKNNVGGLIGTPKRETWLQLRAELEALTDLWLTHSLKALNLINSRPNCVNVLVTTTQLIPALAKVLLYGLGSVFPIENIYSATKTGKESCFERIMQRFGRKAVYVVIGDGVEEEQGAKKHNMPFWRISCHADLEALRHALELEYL
Target sequence (Q15475 whole entry, looked up): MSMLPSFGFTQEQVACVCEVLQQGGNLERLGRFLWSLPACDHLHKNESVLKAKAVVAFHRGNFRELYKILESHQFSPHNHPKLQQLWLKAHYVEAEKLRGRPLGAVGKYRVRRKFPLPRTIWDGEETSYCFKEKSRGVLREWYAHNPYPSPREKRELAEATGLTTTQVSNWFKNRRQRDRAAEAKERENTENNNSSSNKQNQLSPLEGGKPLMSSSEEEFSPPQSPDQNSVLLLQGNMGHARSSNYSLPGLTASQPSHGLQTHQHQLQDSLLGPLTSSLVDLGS
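GST-Six1 + His-Eya2 (5X stock: 250/500 nM); Tris pH 8.0, 300 mM NaCl, 0.05% BSA, 0.02% Tween 20; GSH donor/Ni acceptor beads; 1 h 37 °C dark; AlphaScreen readout.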
CtBP-E1A blk: qHTS Assay for Inhibitors of the CtBP/E1A Interaction; CtBP / adenovirus E1A interaction (AlphaScreen); AlphaScreen GST-E1A/His-CtBP binding, 1536-well; active compounds read low; control for the full effect not named in the record; activity change, % (test concentration not listed); 0.49% of 340,000 active; in the data active means activity change below about -65%; inconclusive means about -30% to -65%; inactive means above about -30%; further: on the % scale 0 is the no-effect control and ±100 the full control effect
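Protein mix (5X: 125 nM each GST-E1A, His-CtBP) was incubated with pinned compound 2 h at 37 deg C in dark, in 50 mM Tris pH 8.0 buffer with 300 mM NaCl. Glutathione donor and nickel acceptor beads followed; AlphaScreen signal read after 1 h.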
D2 potentiator: Beta-Arrestin HTS for Positive Allosteric Modulators of the Human D2 Dopamine Receptor: Potentiators; D(2) dopamine receptor (Homo sapiens), P14416; DiscoveRx D2 beta-arrestin cells, luminescence, 90 min; 100% = 57 uM dopamine signal; potentiation, % (no concentration beside the values); 0.23% of 360,000 active; active = potentiation of 50% or more; inconclusive = 30% to 50%; inactive = 30% or less;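 further: compound concentration not given in the record; tested on top of an EC20 dose of dopamine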
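PathHunter D2 cells, attached overnight at 37 deg C, received compound in DMSO plus dopamine at EC20 (50 nM final) for 90 min at 37 deg C. Beta-arrestin recruitment was read as luminescence after 1 h with detection reagent at ambient temperature.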
gsp ag: qHTS for Agonist of gsp, the Etiologic Mutation Responsible for Fibrous Dysplasia/McCune-Albright Syndrome: qHTS | gsp mutant cells, cAMP HTRF, 30 min; control for the full effect not named in the record | 0.13% of 340,000 active | Potency, µM (titrated, usually from 76.9 µM), for the others: top-dose activation (cAMP increase), most hits filed as activators | AID 624287, 2012; active = well fitted activation curve with a large enough effect; inconclusive = small, poorly fitted or top-dose-only effect, or another doubt; inactive = no such curve, though single readings can be large or run the other way; cell line not stated here;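 further: phosphodiesterase inhibitor Ro 20-1724 added with compounds to block cAMP breakdown; potency means the concentration at half of the fitted maximal effect; nearly all actives have a fitted effect of over 60% in size; about a fifth of the inactives were tested at one dose only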
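Cells stably selected in G418 were plated at 2000/well, grown 16-24 hr, then given compounds in DMSO with the PDE inhibitor […] (300 uM solution added) for 30 min at 37C; cAMP was read by HTRF.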
* = called active by the depositor; [ ] = dose if it differs, or a comment.

`CCC1CCCCN1Cc1nc(Cc2ccccc2Cl)no1` (centres undefined) gave D2 ag -0.5, gsp antag -5%, Six1-Eya2 blk 7, CtBP-E1A blk 8, D2 potentiator -2 and gsp ag 12%[15.4 µM].
`Cc1ccc(S(=O)(=O)/N=C(/Nc2ccccc2C)c2ccccc2)cc1` gave D2 ag -2.8, gsp antag -5%, Six1-Eya2 blk -2, CtBP-E1A blk 3, D2 potentiator -7 and gsp ag -17%.
For Cc1cc(C)cc(-n2c(C)cc(/C=N\NC(=O)COc3cccc4cccnc34)c2C)c1 the results were D2 ag -5.1, gsp antag -2%, Six1-Eya2 blk -18, D2 potentiator -6 and gsp ag 12%.
O=S(=O)(Nc1ccc(-c2ccc3nncn3n2)cc1)c1cc(F)ccc1F was read as D2 ag -4.1, gsp antag 6%, Six1-Eya2 blk 0, CtBP-E1A blk 0, D2 potentiator 0 and gsp ag 10%[15.4 µM].
Cc1cc(C)c2c3c(sc2n1)C(=O)N(C)CC(=O)N3 was read as D2 ag 2.5, gsp antag 2%, Six1-Eya2 blk 0, CtBP-E1A blk 4, D2 potentiator -3 and gsp ag inconclusive.
Screening Cc1ccc(CC(NC(=O)c2ccccc2)C(=O)NCC(=O)O)cc1 (centres undefined) returned D2 ag -2.4, gsp antag 14%, Six1-Eya2 blk -1, CtBP-E1A blk 4, D2 potentiator -13 and gsp ag inconclusive.
`CC(=O)Nc1ccc(S(=O)(=O)N2CCSC2c2ccco2)cc1` (centres undefined) gave D2 ag 1.7, gsp antag 8%, Six1-Eya2 blk -2, CtBP-E1A blk 7, D2 potentiator -6 and gsp ag -5%[15.4 µM].
`CCc1ccc2nc3sc(C(=O)Nc4nnc(CC)s4)c(N)c3cc2c1` gave D2 ag -4.5, gsp antag -21%, Six1-Eya2 blk -21, CtBP-E1A blk 9, D2 potentiator -11 and gsp ag inconclusive.
Screening CCOC(=O)c1ccccc1NC(=O)Cn1cnc2c(nnn2-c2ccc(C)cc2)c1=O returned D2 ag -6.7, gsp antag -8%, Six1-Eya2 blk 7, CtBP-E1A blk 1, D2 potentiator -6 and gsp ag -16%.
Screening COc1ccc(N(C)C(=O)CCS(=O)(=O)c2cccc3nonc23)c(OC)c1 returned D2 ag -3.7, gsp antag 7%, Six1-Eya2 blk 8, CtBP-E1A blk 6, D2 potentiator 9 and gsp ag 12%.
`Nc1nc(CSc2n[nH]c(-c3ccccc3)n2)nc(Nc2ccccc2)n1` gave D2 ag 3.0, gsp antag -9%, Six1-Eya2 blk 1, CtBP-E1A blk -1, D2 potentiator 23 and gsp ag 1%.
Cc1ccc(S(=O)(=O)N2C[C@@H]3c4ccccc4N(S(=O)(=O)c4ccc(C)cc4)[C@@H]3[C@@H](C)C2CC(=O)c2ccccc2)cc1 (some centres undefined) was read as D2 ag -0.7, gsp antag 9%, Six1-Eya2 blk -3 and CtBP-E1A blk 0.
`Cc1nc2c(Cl)cc(Cl)cc2[nH]1` gave D2 ag -0.4, gsp antag -6%, Six1-Eya2 blk 10, CtBP-E1A blk 0, D2 potentiator -5 and gsp ag -12%.
`COc1ccccc1C1CC(c2ccco2)=NN1c1ccccc1` (centres undefined) gave D2 ag -0.4, gsp antag 1%, Six1-Eya2 blk 79, CtBP-E1A blk -3, D2 potentiator -11 and gsp ag inconclusive.
Screening COc1ccccc1C(=O)NC(=O)COC(=O)Cn1cnc2c1c(=O)n(C)c(=O)n2C returned D2 ag -1.5, gsp antag 12%, Six1-Eya2 blk 9, CtBP-E1A blk -6, D2 potentiator -4 and gsp ag 27%[15.4 µM].
Screening Cc1ccc(S(=O)(=O)NC(=O)NC2=NC(C)(C)N(c3ccc(Cl)c(Cl)c3)C(N)=N2)cc1 returned D2 ag 0.6, Six1-Eya2 blk 6, CtBP-E1A blk 7 and D2 potentiator -6.
Screening CC(=O)c1cnc2n(c1=O)CCS2 returned D2 ag 1.2, gsp antag 9%, Six1-Eya2 blk -5, CtBP-E1A blk -19, D2 potentiator -1 and gsp ag -1%.
For Cc1ccc2cc(C=O)c(N(C)C)nc2c1 the results were D2 ag -1.2, gsp antag 19%, Six1-Eya2 blk 8, CtBP-E1A blk -10, D2 potentiator -8 and gsp ag 24%.
Screening CC(=O)c1ccc(NC(=O)CSc2ccc(-c3sc(C)nc3C)nn2)cc1 returned D2 ag -1.3, gsp antag -11%, Six1-Eya2 blk -16, CtBP-E1A blk -23, D2 potentiator 13 and gsp ag inconclusive.
Screening CCN1CCc2c(OCC(=O)N3CCCc4ccccc43)cccc2C1=O returned D2 ag 0.5, gsp antag -13%, Six1-Eya2 blk -10, CtBP-E1A blk 2, D2 potentiator 6 and gsp ag 2%[15.4 µM].
CCCCn1nnnc1SCC(=O)c1ccc(C)c(C)c1 was read as D2 ag -4.2, gsp antag -13%, Six1-Eya2 blk -30, CtBP-E1A blk 16, D2 potentiator -15 and gsp ag -9%.
`COCCC(=O)N1CCC(Oc2ccc(C(=O)N(C)C(C)c3ccon3)cc2)CC1` (centres undefined) gave D2 ag 6.3, gsp antag 2%, Six1-Eya2 blk 2, CtBP-E1A blk 9, D2 potentiator -6 and gsp ag -11%.
`COc1cc2c3c(n(C)c(=O)c2cc1OC)-c1cc2c(cc1C3=O)OCO2` gave D2 ag -2.1, gsp antag 9%, Six1-Eya2 blk -7, CtBP-E1A blk 0, D2 potentiator 0 and gsp ag -3%.
For CN1C(=O)C(C)(C)c2cc(S(=O)(=O)NCc3ccc(C(=O)NCc4ccco4)cc3)ccc21 the results were D2 ag -2.3, gsp antag 4%, Six1-Eya2 blk -25, CtBP-E1A blk -6, D2 potentiator 5 and gsp ag -23%.
`Oc1c(Br)cc(/C=N/n2c(-c3ccccc3)n[nH]c2=S)cc1Br` gave D2 ag 6.9, gsp antag inconclusive, Six1-Eya2 blk -10, CtBP-E1A blk 15, D2 potentiator -4 and gsp ag -3%[15.4 µM].
`COCCNC(=O)C(c1ccc(C)cc1)N(C(=O)C(=O)NC1CCCC1)c1ccc2c(c1)OCCO2` (centres undefined) gave D2 ag -4.9, gsp antag 4%, Six1-Eya2 blk 0, CtBP-E1A blk 9, D2 potentiator -11 and gsp ag inconclusive.
Screening O=C(NC1=NCCS1)c1ccccc1F returned D2 ag -3.7, gsp antag -1%, Six1-Eya2 blk 4, CtBP-E1A blk 4, D2 potentiator 0 and gsp ag 10%[15.4 µM].
`COc1cccc(-c2cnc3c(NC=O)cc(-c4cc(OC)c(OC)c(OC)c4)cn23)c1` gave D2 ag inconclusive, Six1-Eya2 blk -2, CtBP-E1A blk -9 and D2 potentiator 3.
`CNc1oc(/C=C/c2cccc(OC)c2)nc1C#N` gave D2 ag 1.0, gsp antag -7%, Six1-Eya2 blk 4, D2 potentiator 17 and gsp ag inconclusive.
`O=c1oc2ccccc2cc1-c1nnc(NCc2ccco2)s1` gave D2 ag -0.1, gsp antag 7%, Six1-Eya2 blk -2, CtBP-E1A blk -2, D2 potentiator 5 and gsp ag 33%.
Screening O=C(Nc1ccc(OC(F)(F)F)cc1)Nc1cccc([N+](=O)[O-])c1 returned D2 ag 1.6, gsp antag inconclusive, Six1-Eya2 blk -2, CtBP-E1A blk 0, D2 potentiator -7 and gsp ag 10%.
Screening Cn1c(NC(=O)c2ccc(Cl)cc2Cl)cc(=O)n(C)c1=O returned D2 ag -0.4, gsp antag -4%, Six1-Eya2 blk -8, CtBP-E1A blk 4, D2 potentiator -5 and gsp ag 2%.
For CC(=O)c1ccc(NC(=O)C(C)Sc2nnc(-c3ccncc3)n2C2CC2)cc1 (centres undefined) the results were D2 ag -0.6, gsp antag -24%, Six1-Eya2 blk -9, CtBP-E1A blk 2, D2 potentiator -8 and gsp ag 12%[15.4 µM].
`CSc1nc2c(c(C(F)(F)F)n1)CC(C)CC2` (centres undefined) gave D2 ag -2.3, gsp antag 4%, Six1-Eya2 blk -13, CtBP-E1A blk -15, D2 potentiator 17 and gsp ag 22%.
For Cc1cn([C@H]2C[C@H](O)[C@@H](/C=C/C(=O)NCCc3ccc4c(c3)OCO4)O2)c(=O)[nH]c1=O the results were D2 ag 0.1, Six1-Eya2 blk 5, CtBP-E1A blk 8 and D2 potentiator -2.
Screening Cc1cc(C)nc(NC2=NCC(=O)N2c2ccccc2Br)n1 returned D2 ag -4.7, gsp antag 12%, Six1-Eya2 blk 1, CtBP-E1A blk 5, D2 potentiator -2 and gsp ag 6%.
For COc1cc(N)c(Cl)cc1C(=O)OCC(=O)c1ccc2c(c1)NC(=O)CO2 the results were D2 ag 0.2, gsp antag inconclusive, Six1-Eya2 blk -9, CtBP-E1A blk 4, D2 potentiator -9 and gsp ag -8%[15.4 µM].
Screening Cc1ccccc1NC(=O)COC(=O)Cc1cccc(C(F)(F)F)c1 returned D2 ag -9.0, gsp antag 12%, Six1-Eya2 blk -3, CtBP-E1A blk 8, D2 potentiator -12 and gsp ag -8%.
`Cc1ccc2nc(-c3ccc(Br)cc3)cn2c1` gave D2 ag -2.1, gsp antag 14%, Six1-Eya2 blk -2, CtBP-E1A blk 10, D2 potentiator -3 and gsp ag 3%.
`c1ccc2c(c1)Cn1nc(Cc3nc4c(s3)CCCC4)nc1-2` gave D2 ag 0.6, gsp antag 2%, Six1-Eya2 blk -1, CtBP-E1A blk -2, D2 potentiator -2 and gsp ag -4%.
For COc1ccc(CC(=O)Nc2ccc(S(=O)(=O)Nc3cc(C)on3)cc2)cc1 the results were D2 ag -2.0, gsp antag -10%, Six1-Eya2 blk -8, CtBP-E1A blk -9, D2 potentiator 2 and gsp ag -36%[inhibitor].
For Cc1occc1C(=O)NNC(=O)C(c1ccccc1)c1ccccc1 the results were D2 ag 0.5, gsp antag 15%, Six1-Eya2 blk 1, CtBP-E1A blk 3, D2 potentiator -1 and gsp ag inconclusive.
CCCOc1ccc(CCC(=O)O)cc1 was read as D2 ag -2.3, gsp antag -2%, Six1-Eya2 blk -2, D2 potentiator -8 and gsp ag -4%.
CCN(CC)CCn1c2c(c(SCC(=O)Nc3nc(C)cs3)nc1=O)CCC2 was read as D2 ag 0.1, gsp antag -14%, Six1-Eya2 blk 2, CtBP-E1A blk 7, D2 potentiator -11 and gsp ag 8%[15.4 µM].

An unsorted share of the library. Share with any hit: about 1.4%.
